# Screening data (PubChem BioAssay)
# NS1 inh: inhibitors of influenza NS1 protein function; S. cerevisiae slowed by influenza A NS1, growth recovery by OD600; Potency, µM (titrated, usually from 46.1 µM), inactives show top-dose activity, positive = more growth; actives 0.4% (n = 270,000); AID 2326; active means well fitted rising curve with a large enough effect; inconclusive means small, poorly fitted or top-dose-only effect; inactive means no such curve, though single readings can be large or run the other way; further: nearly all actives have a fitted effect of over 50% in size
#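 OD600 was taken as the measure of yeast growth restored by compound in an NS1-expressing S. cerevisiae strain. Cells had been washed out of glucose medium and diluted 1:100 into galactose -URA medium, pH 6.0.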
# Marburg entry inh: Marburg virus entry inhibition; Marburg virus pseudotyped entry inhibition, cell reporter; control for the full effect not named in the record; about a third of the inactives were read at about 46 µM; Potency, µM (series often up to 37.8 µM), without a hit: at the highest dose activity change, negative = inhibition, most hits filed as inhibitors; actives 1.8% (n = 300,000); active = well fitted inhibition curve with a large enough effect; inconclusive = small, poorly fitted or top-dose-only effect, or effect the other way; inactive = flat fitted curve, though single readings scatter; tested in HEK293 cells; about a fifth of its hits are not listed in these tables; further: on the % scale 0 is the no-effect control and ±100 the full control effect; luciferase read-out
# Cruzain inh Det: blocks cruzain activity in presence of Triton detergent; purified cruzain, Z-FR-AMC fluorescence, 0.01% Triton; Potency, µM, for the others: max response, negative = inhibition, usual class: inhibitors; actives 0.43% (n = 200,000); AID 1478;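 further: plate controls were neutral wells for no effect and buffer without enzyme for full effect; nearly all actives have a fitted effect of over 40% in size; top concentration of the series not given in the record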
# Target sequence (P25779 123-467 limits assumed): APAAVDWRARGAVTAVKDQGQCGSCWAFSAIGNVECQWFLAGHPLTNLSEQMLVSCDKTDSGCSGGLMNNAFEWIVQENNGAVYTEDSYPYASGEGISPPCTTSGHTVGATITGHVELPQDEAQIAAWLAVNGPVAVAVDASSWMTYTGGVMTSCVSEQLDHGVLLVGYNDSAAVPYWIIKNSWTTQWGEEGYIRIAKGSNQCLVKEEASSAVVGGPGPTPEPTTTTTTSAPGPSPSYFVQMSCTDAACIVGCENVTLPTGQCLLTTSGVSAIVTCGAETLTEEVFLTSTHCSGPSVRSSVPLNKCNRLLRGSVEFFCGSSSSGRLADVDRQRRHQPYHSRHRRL
#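 Compounds were screened in titration against cruzain (1.5 nM) with 0.01% Triton X-100 to counter colloidal aggregation. Activity was the AMC fluorescence increase over 60 s after adding 2 uM Z-FR-AMC at pH 5.5.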
# LASV entry inh: inhibitors of Lassa virus binding or cell entry; Lassa virus pseudotype entry inhibition, cell reporter; control for the full effect not named in the record; Potency, µM (highest dose often 37.9 µM), inactives show top-dose activity change, negative = inhibition, usual class: inhibitors; actives 1.2% (n = 300,000); AID 540256; active means well fitted inhibition curve with a large enough effect; inconclusive means small, poorly fitted or top-dose-only effect, or effect the other way; inactive means flat fitted curve, though single readings scatter; tested in HEK293 cells; further: on the % scale 0 is the no-effect control and ±100 the full control effect; nearly all actives have a fitted effect of over 50% in size; luciferase read-out
# Cruzain noTriton: cruzain (T. cruzi) inhibition without detergent. Potency, µM, without a hit: max response, negative = inhibition, actives largely listed as inhibitors. actives 2.3% (n = 200,000). purified cruzain, Z-FR-AMC fluorescence, no detergent. P25779. AID 1476;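 further: plate controls were enzyme without inhibitor for no effect and buffer without enzyme for full effect; nearly all actives have a fitted effect of over 40% in size; top concentration of the series not given in the record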
#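 Detergent-free condition (0.00005% Triton X-100) in acetate buffer pH 5.5 with DTT. 1.5 nM enzyme and compound were pre-mixed 15 min, then 2 uM Z-FR-AMC substrate added; reaction progress from fluorescence change between first and third reads (60 s).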
# RE007 growth inh: less growth of the S. pombe RE007 Vpr strain | actives 0.21% (n = 360,000) | Potency, µM (top dose mostly 92.2 µM), for inactives: at the top dose activity change, negative = less growth | AID 651644 | S. pombe RE007 Vpr strain, BacTiter-Glo ATP luminescence, 24 h; control for the full effect not named in the record; active = well fitted falling curve with a large enough effect; inconclusive = small, poorly fitted or top-dose-only effect; inactive = no such curve, though single readings can be large or run the other way;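 further: on the % scale 0 is the no-effect control and ±100 the full control effect; nearly all actives have a fitted effect of over 50% in size; the assay follows cell death caused by Vpr and the record does not say whether a fall means rescue or toxicity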
#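 Fission yeast RE007 carrying one integrated HIV-1 vpr copy, seeded at OD 0.01 in PMG+AL medium with 23 nL pinned compound. Grown 24 h at 30 degrees; viability read by BacTiter-Glo luminescence after 5 min.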
# 2A StopGo: lowers the luciferase signal of an FMDV 2A StopGo reporter | Potency, µM (highest dose often 57.9 µM), without a hit: at the top dose signal change, negative = less light | human cells with a luciferase reporter of 2A StopGo recoding; control for the full effect not named in the record | actives 1.2% (n = 410,000); active = well fitted falling curve with a large enough effect; inconclusive = small, poorly fitted or top-dose-only effect; inactive = no such curve, though single readings can be large or run the other way; tested in HEK293T cells; further: on the % scale 0 is the no-effect control and ±100 the full control effect; nearly all actives have a fitted effect of over 45% in size; luciferase light after 4 h
# SARS PLP yeast: blocks SARS-CoV papain-like protease in a yeast assay; AID 485353; S. cerevisiae expressing SARS-CoV PLpro, growth rescue; control for the full effect not named in the record; actives 0.19% (n = 330,000); Potency, µM (top dose mostly 32.9 µM), for the others: at the top dose activity, positive = growth rescue; active means well fitted rising curve with a large enough effect; inconclusive means small, poorly fitted or top-dose-only effect; inactive means no such curve, though single readings can be large or run the other way; further: 0% is about no effect; nearly all actives have a fitted effect of over 55% in size; growth read by luminescence after 48 h
# Active calls of the source: *; u = inconclusive; x = no result given; & = joins results of further samples; [ ] = another dose, or the depositor's remark. Unless noted, the call rests on the fitted dose curve; in most records, active means well fitted curve in the direction sought with a large enough effect; inconclusive means small, poorly fitted or top-dose-only effect, or another doubt; inactive means no such curve, though single readings can be large; an effect the other way counts as inactive or inconclusive. Potency means the concentration at half of the fitted maximal effect. The order is random, and some 4.5% of all compounds hit somewhere here.
# Second line of a record – NS1 inh	Marburg entry inh	Cruzain inh Det	LASV entry inh	Cruzain noTriton	RE007 growth inh	2A StopGo	SARS PLP yeast
> Clc1ccc(OCCCn2ccnc2)c(Br)c1
→ -20.0%	7.2%	-4.9%	2.9%	-5.0%	2.1%	-10.6%	-29.8%
> O=C1c2ccccc2C(=O)N1c1cc([N+](=O)[O-])ccn1
→ 3.4%	u	x	u	x	-6.1%	-7.8%	0.8%
> FC(F)(F)c1ccccc1NC(=S)Nc1cccc(Cl)c1
→ -9.6%	22.3%[46.1 µM]	x	6.5%	x	-11.1%	-12.0%	-0.7%
> O=[N+]([O-])c1ccc(CNC2CCCc3ccccc32)cc1 (centres undefined)
→ 1.7%	-4.1%[46.1 µM]	x	-11.6%[46.1 µM]	x	-20.7%	-17.0%	0.9%
> S=C1NCCOCCNC(=S)NCCOCCOCCN1
→ 1.6%	x	x	x	x	-3.7%	5.4%	-1.2%
> COc1cc2c(cc1OC)CN(C(=O)COc1ccc(C)c(C)c1)CC2
→ -10.9%	2.0%	-3.5%	-0.6%	11.2%	1.4%	-0.2%	-4.7%
> CCC(C)N1CCN(S(=O)(=O)Cc2ccccc2)CC1 (centres undefined)
→ -9.1%	8.1%[46.1 µM]	x	2.8%[46.1 µM]	x	10.6%	-3.8%	1.3%
> CCOC(=O)C1CCN(c2c(Nc3cc(C)cc(C)c3)c(=O)c2=O)CC1
→ -31.7%	u	x	-27.5%	x	1.8%	-7.6%	-0.7%
> CCOC(=O)c1c(-c2ccccc2)nnn1-c1nc(OC)nc(N2CCOCC2)n1
→ 4.3%	-2.7%	-0.9%	-7.4%	16.7%	-5.2%	u	2.9%
> CCOc1cc(/C=N/NC(=O)c2nnn(-c3nonc3N)c2C)ccc1OCc1ccc(F)cc1
→ 4.9%	x	x	x	x	-2.0%	0.0%	2.7%
> CCN1CCN(c2ccc(S(=O)(=O)N3CCOCC3)cc2NC(=O)c2cccc([N+](=O)[O-])c2)CC1
→ x	u	x	7.9%[46.1 µM]	x	6.3%	-5.9%	0.4%
> Cc1ccc(C)c(Nc2c(F)c(F)c(F)c(F)c2C(=O)O)c1
→ x	-0.4%[46.1 µM]	x	-1.7%[46.1 µM]	x	-1.7%	-16.4%	1.8%
> COCc1[nH][nH]c(=O)c1C=Nc1ccccc1
→ -1.6%	10.5%	-0.7%	10.5%	-6.0%	2.9%	7.5%	4.9%
> O=C(CN1C(=O)S/C(=C\c2cc(Cl)c(O)c(Cl)c2)C1=O)Nc1ccccc1
→ 6.9%	-17.7%[46.1 µM]	x	18.6%[46.1 µM]	x	-2.1%	-23.8%	-0.3%
> O=C(NC1=NCCS1)c1csc2ccccc12
→ -160.6%	-1.4%	-13.9%	u	15.8µM*	u	48.1%[activator]	-7.2%

# Brought forward from above: six entries; new compounds follow.
# Second line of a record – NS1 inh	Marburg entry inh	Cruzain inh Det	LASV entry inh	Cruzain noTriton	RE007 growth inh	2A StopGo	SARS PLP yeast
> CCOc1cc(/C=N/NC(=O)c2nnn(-c3nonc3N)c2C)ccc1OCc1ccc(F)cc1
→ 4.9%	x	x	x	x	-2.0%	0.0%	2.7%
> CCN1CCN(c2ccc(S(=O)(=O)N3CCOCC3)cc2NC(=O)c2cccc([N+](=O)[O-])c2)CC1
→ x	u	x	7.9%[46.1 µM]	x	6.3%	-5.9%	0.4%
> Cc1ccc(C)c(Nc2c(F)c(F)c(F)c(F)c2C(=O)O)c1
→ x	-0.4%[46.1 µM]	x	-1.7%[46.1 µM]	x	-1.7%	-16.4%	1.8%
> COCc1[nH][nH]c(=O)c1C=Nc1ccccc1
→ -1.6%	10.5%	-0.7%	10.5%	-6.0%	2.9%	7.5%	4.9%
> O=C(CN1C(=O)S/C(=C\c2cc(Cl)c(O)c(Cl)c2)C1=O)Nc1ccccc1
→ 6.9%	-17.7%[46.1 µM]	x	18.6%[46.1 µM]	x	-2.1%	-23.8%	-0.3%
> O=C(NC1=NCCS1)c1csc2ccccc12
→ -160.6%	-1.4%	-13.9%	u	15.8µM*	u	48.1%[activator]	-7.2%
> COC(=O)c1cccc(NC(=O)c2ccc3c(c2)C(=O)N(Cc2cccnc2)C3=O)c1C
→ -0.7%	11.0%	x	9.2%	x	2.2%	-10.9%	16.5%
> COc1ccccc1NC(=O)c1c[nH]c2ccccc12
→ -38.4%	x	x	x	x	-6.8%	24.2%	-0.8%
> CC(=O)Oc1oc(-c2ccccc2)nc1/C=N/c1ccccn1
→ -38.2%	-17.9%	14.1µM*	-0.5%	12.6µM*	4.5%	x	-2.9%
> Cn1c(=O)c(=O)n(C)c2cc(N3CCOCC3)c(NS(=O)(=O)c3ccc(Cl)cc3)cc21
→ x	x	-2.6%	2.3%[46.1 µM]	3.8%	x	-19.6%	x
> Fc1cccc(Cl)c1/C=N/Nc1ccccn1
→ x	2.6%	x	23.2%	x	-23.1%	57.2%[activator]	0.0%
> CC1CCCN(c2csc3ccc(F)cc3c2=O)C1 (centres undefined)
→ x	x	-4.0%	18.4%[46.1 µM]	1.1%	x	16.8%	x
> CCCc1c(C(=O)N/N=C/c2ccc(C)s2)nnn1-c1nonc1N
→ 4.5%	x	x	x	x	0.0%	2.0%	u
> Cc1nc2sc(C(c3cccs3)N3CCN(Cc4ccccc4)CC3)c(O)n2n1 (centres undefined)
→ -6.2%	x	x	x	x	-3.4%	-4.4%	-0.2%
> CCCCOc1ccc(N=Cc2ccc[nH]2)cc1
→ -27.4%	5.1%	x	6.0%	x	-15.1%	8.4%	-0.4%
> Cc1ccc2cc(CN(c3ccccc3)S(=O)(=O)c3ccccc3)c(=O)[nH]c2c1
→ -8.9%	u	x	0.2%	x	-9.3%	8.8%	1.2%
> O=c1[nH]c(CSc2nnc(-c3ccccc3)n2-c2ccccc2)nc2ccccc12
→ -4.4%	29.8%	0.7%	-5.8%	12.0%	0.4%	-11.1%	23.1%
> COc1ccc(Cc2n[nH]c(=S)o2)cc1
→ 5.9%	14.4%[46.1 µM]	x	11.3%	x	-17.5%	1.7%	11.6%
> Cc1ccc(CNC(=O)C(=O)NCC(c2cccnc2)N2CCN(c3ccccc3F)CC2)cc1 (centres undefined)
→ x	x	-12.4%	u	u	x	-20.2%	x
> COc1ccccc1N1CCN(C(=O)c2cnc(N3CCCCC3)c3ccccc23)CC1
→ x	x	-7.4%	u	u	x	u	x
> Cc1ccc(C)c(NC(=O)C(Sc2nnc(-c3cccs3)o2)c2ccccc2)c1 (centres undefined)
→ u	u	-4.2%	4.5%	2.3%	7.8%	13.3%	20.6%
> N/C(=N\O)C1COc2ccccc2O1 (centres undefined)
→ -3.4%	-7.7%	4.4%	-27.0%	-3.7%	0.1%	17.7%	-16.6%
> CCCCC(=O)NC(c1ccco1)c1cc(Cl)c2cccnc2c1O (centres undefined)
→ -3.0%	u	x	u	x	u	-19.3%	1.1%
> Cc1c(C2Nc3ccccc3C(=O)N2O)cnn1C (centres undefined)
→ 2.2%	-4.0%	-3.9%	u	4.2%	3.1%	-6.0%	-25.2%
> CCP(=S)(CC)c1ccc(N(C)C)cc1
→ -0.5%	-9.5%[14.2 µM]	x	-0.1%	x	9.8%	-7.1%	1.2%
> Nc1ncnc2nc(SCCC(=O)O)[nH]c12
→ 6.5%	x	x	x	x	25.9%	1.5%	-0.2%
> O=C(O)CCNC(=O)c1ccc(NC(=O)C(c2ccccc2)c2ccccc2)cc1
→ -2.5%	x	x	x	x	11.5%	10.1%	0.6%
> O=C(COc1ccccc1Cl)Nn1cnnc1
→ -11.1%	9.7%	-0.9%	-0.2%	-13.7%	1.5%	8.9%	1.9%
> COc1ccc(S(=O)(=O)N2CCC(C(=O)NCC3CCCCC3)CC2)cc1
→ -25.2%	16.7%[46.1 µM]	x	u	x	0.7%	-10.6%	-0.5%
> CCCCNC(=O)CN(C1CCCCC1)S(C)(=O)=O
→ u	2.9%	4.0%	-0.1%	5.0%	8.8%	-5.0%	-1.1%
> O=C(CSc1nc2ccsc2c(=O)n1Cc1ccccc1F)NCc1ccccc1
→ x	x	0.7%	-4.9%[46.1 µM]	-9.7%	x	-5.0%	x
> Cc1cccc(C2N=C(N)Nc3nc4ccccc4n32)c1 (centres undefined)
→ 0.4%	u	2.3%	u	9.8%	-5.6%	-9.6%&-14.6%	-0.8%
> O=C(CSc1nnc(NC(=O)Cc2ccccc2)s1)NCC1CCCO1 (centres undefined)
→ x	-1.1%[46.1 µM]	x	0.9%[46.1 µM]	x	9.8%	-1.4%	4.4%
> Cc1cc(NC(=O)c2cc(C3CC3)on2)n(-c2ccccc2)n1
→ -21.8%	x	0.8%	x	2.9%	-7.2%	0.6%	-7.3%
> CCOP(=O)(OCC)C(NC(=O)c1cccc([N+](=O)[O-])c1)C(Cl)(Cl)Cl (centres undefined)
→ -0.4%	4.2%	x	4.0%	x	17.1%	1.5%	-2.9%
> COc1cccc(CNC(=O)Cn2nc(C)c3c(C)n(-c4ccc(C)cc4)nc3c2=O)c1OC
→ 6.1%	x	x	x	x	6.2%	u	-0.8%
> Cc1cc(C)n(CC(=O)Nc2cc(F)ccc2F)c(=O)c1C#N
→ x	x	-2.3%	-1.7%[46.1 µM]	5.9%	x	-1.9%	x
> CN(C(=O)c1cccs1)c1ccccc1C(=O)O
→ -5.5%	32.7%	-4.7%	22.9%	2.8%	7.1%	11.7%	2.7%
> O=C(Nc1ccc(-c2nc3ccccc3o2)cc1)c1cc(-n2cnnc2)ccc1Cl
→ 4.5%	u	-10.7%	u	u	2.2%	-28.2%	15.6%
